# Marburg entry inh – inhibitors of Marburg virus binding or cell entry | Marburg virus pseudotyped entry inhibition, cell reporter; control for the full effect not named in the record; about a third of the inactives were read at about 46 µM | Potency, µM (doses to about 37.8 µM), inactives show top-dose activity change, negative = inhibition, most hits filed as inhibitors | 1.8% of 300,000 active; active = well fitted inhibition curve with a large enough effect; inconclusive = small, poorly fitted or top-dose-only effect, or effect the other way; inactive = flat fitted curve, though single readings scatter; tested in HEK293 cells; about a fifth of its hits are not listed in these tables; also: % is scaled to controls: 0 for no effect and ±100 for the full control effect; luciferase read-out
# Cruzain inh Det – inhibitors of Trypanosoma cruzi cruzain with detergent | P25779 | purified cruzain, Z-FR-AMC fluorescence, 0.01% Triton | 0.43% of 200,000 active | AID 1478 | Potency, µM, without a hit: max response, negative = inhibition, hits mostly inhibitors; active = well fitted curve in the direction sought with a large enough effect; inconclusive = small, poorly fitted or top-dose-only effect, or another doubt; inactive = no such curve, though single readings can be large; an effect the other way counts as inactive or inconclusive;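 also: plate controls were neutral wells for no effect and buffer without enzyme for full effect; nearly all actives have a fitted effect of over 40% in size; top concentration of the series not given in the record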
# Target sequence (P25779 123-467 limits assumed): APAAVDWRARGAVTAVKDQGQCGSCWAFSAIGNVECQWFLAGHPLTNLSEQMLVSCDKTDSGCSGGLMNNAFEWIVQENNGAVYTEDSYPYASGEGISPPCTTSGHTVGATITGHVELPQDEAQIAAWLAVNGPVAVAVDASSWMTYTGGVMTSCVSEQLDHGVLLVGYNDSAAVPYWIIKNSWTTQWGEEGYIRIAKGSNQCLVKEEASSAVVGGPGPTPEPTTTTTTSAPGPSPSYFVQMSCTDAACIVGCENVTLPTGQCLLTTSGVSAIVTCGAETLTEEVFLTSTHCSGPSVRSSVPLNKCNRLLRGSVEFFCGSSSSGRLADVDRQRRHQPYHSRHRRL
#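 Cysteine protease activity tested under reducing, mildly acidic conditions (100 mM sodium acetate pH 5.5, 5 mM DTT) plus 0.01% Triton X-100. Cruzain 1.5 nM; substrate Z-FR-AMC 2 uM; 15 min compound preincubation at room temperature.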
# NS1 inh – blocks influenza NS1 protein function; S. cerevisiae slowed by influenza A NS1, growth recovery by OD600; Potency, µM (titrated, usually from 46.1 µM), inactives show at the highest dose activity, positive = more growth; 0.4% of 270,000 active; AID 2326; also: actives are rising curves; nearly all actives have a fitted effect of over 50% in size
#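 Recovery from NS1-induced slow growth read by OD600 in budding yeast switched to galactose assay medium (pH 6.0, -URA) at 1:100 dilution. Compound 23 nl per well; the matching strain lacking NS1 serves as control.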
# Lassa entry inh – blocks Lassa virus binding to or entry into cells; Lassa virus pseudotype entry inhibition, cell reporter; control for the full effect not named in the record; Potency, µM (series often up to 37.9 µM), for the others: at the highest dose activity change, negative = inhibition, actives largely listed as inhibitors; 1.2% of 300,000 active; AID 540256; active means well fitted inhibition curve with a large enough effect; inconclusive means small, poorly fitted or top-dose-only effect, or effect the other way; inactive means flat fitted curve, though single readings scatter; tested in HEK293 cells; also: % is scaled to controls: 0 for no effect and ±100 for the full control effect; nearly all actives have a fitted effect of over 50% in size; luciferase read-out
# Cruzain inh noDet – blocks cruzain activity in detergent-free assay | P25779 | purified cruzain, Z-FR-AMC fluorescence, no detergent | Potency, µM, without a hit: max response, negative = inhibition, actives largely listed as inhibitors | 2.3% of 200,000 active; active = well fitted curve in the direction sought with a large enough effect; inconclusive = small, poorly fitted or top-dose-only effect, or another doubt; inactive = no such curve, though single readings can be large; an effect the other way counts as inactive or inconclusive;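 also: plate controls were enzyme without inhibitor for no effect and buffer without enzyme for full effect; nearly all actives have a fitted effect of over 40% in size; top concentration of the series not given in the record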
#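 Purified cruzain at 1.5 nM, pre-incubated 15 min with compound at room temperature in 100 mM sodium acetate pH 5.5, 5 mM DTT, 0.00005% Triton X-100. Reaction started with 2 uM Z-FR-AMC; AMC fluorescence increase over 60 s gives rate.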
# 2A StopGo – lowers the luciferase signal of an FMDV 2A StopGo reporter; AID 1159524; human cells with a luciferase reporter of 2A StopGo recoding; control for the full effect not named in the record; 1.2% of 410,000 active; Potency, µM (doses to about 57.9 µM), inactives show at the top dose signal change, negative = less light; active = well fitted falling curve with a large enough effect; inconclusive = small, poorly fitted or top-dose-only effect; inactive = no such curve, though single readings can be large or run the other way; tested in HEK293T cells; also: % is scaled to controls: 0 for no effect and ±100 for the full control effect; nearly all actives have a fitted effect of over 45% in size; luciferase light after 4 h
# SARS PLpro yeast – inhibitors of SARS-CoV papain-like protease in yeast | S. cerevisiae expressing SARS-CoV PLpro, growth rescue; control for the full effect not named in the record | Potency, µM (doses to about 32.9 µM), without a hit: top-dose activity, positive = growth rescue | 0.19% of 330,000 active | AID 485353; also: 0% is about no effect; nearly all actives have a fitted effect of over 55% in size; growth read by luminescence after 48 h
# RE007 growth inh – less growth of the S. pombe RE007 Vpr strain. S. pombe RE007 Vpr strain, BacTiter-Glo ATP luminescence, 24 h; control for the full effect not named in the record. Potency, µM (series often up to 92.2 µM), for inactives: top-dose activity change, negative = less growth. 0.21% of 360,000 active; active = well fitted falling curve with a large enough effect; inconclusive = small, poorly fitted or top-dose-only effect; inactive = no such curve, though single readings can be large or run the other way;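 also: % is scaled to controls: 0 for no effect and ±100 for the full control effect; nearly all actives have a fitted effect of over 50% in size; the assay follows cell death caused by Vpr and the record does not say whether a fall means rescue or toxicity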
#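 Fission yeast RE007 carrying one integrated HIV-1 vpr copy, seeded at OD 0.01 in PMG+AL medium with 23 nL pinned compound. Grown 24 h at 30 degrees; viability read by BacTiter-Glo luminescence after 5 min.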
# * = called active by the depositor; ? = inconclusive; . = not tested or not shown; [ ] = remark or other dose. Unless noted, calls follow the shape of the dose curve; as a rule, active means well fitted rising curve with a large enough effect; inconclusive means small, poorly fitted or top-dose-only effect; inactive means no such curve, though single readings can be large or run the other way. Potency is read from the fitted curve at half-maximal effect.
Compound | Cruzain inh Det | NS1 inh | 2A StopGo | Cruzain inh noDet | Lassa entry inh | RE007 growth inh | SARS PLpro yeast | Marburg entry inh
COc1ccccc1-n1cnc2cc(NCc3ccccc3O)ccc21 | . | -4% | 15% | . | . | 3% | 0% | .
Cc1ccc(Cn2nnc3c(=O)[nH]c(C4CCN(C(=O)c5cccs5)CC4)nc32)cc1 | 0.3% | -21% | -20% | ? | 2.9µM* | 13% | 3% | ?
CC(C)(C)C(=O)Nc1ccc(C(=O)N/N=C/C2CC3C=CC2C3)cc1 (stereo unspecified) | 4.4% | ? | 8% | 17% | -29%[46.1 µM] | 8% | 1% | ?
CCCC1CCc2c(sc(NC(=O)OCC)c2C#N)C1 (stereo unspecified) | 3.7% | 11% | 5% | 3% | -25% | ? | -12% | ?
O=C(Cn1c(=O)oc2cc(S(=O)(=O)N3CCCCC3)ccc21)N1CCc2ccccc21 | 3.1% | -3% | -13% | ? | . | -1% | 2% | -1%
O=C(CCNS(=O)(=O)c1ccc(OC(F)(F)F)cc1)N1CCCC1 | . | . | -4% | . | 9% | 13% | -4% | -12%
O=C1c2ccccc2C(Nc2ccccc2F)N1c1cccnc1 (stereo unspecified) | 0.9% | -8% | -23% | -13% | . | -5% | 4% | .
COc1cccc(C(=O)NCC(c2cccnc2)N2CCN(c3ccccc3OC)CC2)c1 (stereo unspecified) | . | -34% | 35µM* | . | . | 7% | 2% | .
COC(=O)c1cc(S(=O)(=O)Nc2nn(C)c3cccc(F)c23)oc1C | . | -1% | 50%[activator] | . | -3% | 12% | 0% | -4%
Cc1ccc(COc2coc(CN3CCN(C(=O)c4ccco4)CC3)cc2=O)cc1 | . | . | -17% | . | 27% | 17% | 1% | 9%
CCCOc1ccc(OCCNC2CCCC2)cc1 | 7.3% | -10% | 1% | -4% | 4% | -3% | 7% | -2%
S=C(c1ccc(-c2ccc(Cl)cc2)o1)N1CCCCC1 | -3.6% | -12% | -7% | -3% | ? | -15% | -11% | ?
Cc1cccc(NC(=O)c2sc(-n3nc(C)c(CCC(C)C)c3C)nc2C)c1C | -1.5% | . | -4% | -5% | -1%[46.1 µM] | . | . | 2%[46.1 µM]
Cc1ccc(S(=O)(=O)N(Cc2ccccc2)c2ccccc2C(=O)NCc2cccnc2)cc1 | -1.0% | -13% | 22% | 12% | ? | -1% | -1% | ?
O=C1CCN2C=Nc3cccc4ccc1c2c34 | -2.4% | -13% | -2% | -7% | 1% | 4% | 8% | ?
Cc1nc(N)sc1-c1csc(Nc2ccc(S(N)(=O)=O)cc2)n1 | . | 14% | -7% | . | . | -1% | ? | .
O=C(NC(=S)NNC(=O)c1ccco1)c1ccc(Br)cc1 | . | -89% | -12% | . | . | ? | -22% | .
COc1ccc(N2CCN(C(=O)C3CCCN(S(=O)(=O)c4cccc5cccnc45)C3)CC2)cc1 (stereo unspecified) | -3.7% | -16% | -3% | 26% | . | 1% | -4% | 0%
O=C(C1CCC(CNS(=O)(=O)c2ccc(F)cc2)CC1)N1CCOCC1 (stereo unspecified) | . | . | -5% | . | -2% | 10% | 0% | 8%[46.1 µM]
COCCCNC(=O)COc1cc2c(c3oc(=O)c(C)c(C)c13)CCC(C)(C)O2 | . | 1% | -10% | . | -15%[46.1 µM] | 6% | 1% | 26%[46.1 µM]
COc1cc(C(=S)N2CCOCC2)cc(OC)c1OC(=O)c1ccc(F)cc1 | . | 17% | -12% | . | ? | -27% | 10% | ?
COc1ccccc1NC(=O)Cn1c(=O)n(CCCCCC(=O)NCc2ccccc2)c(=O)c2sccc21 | -2.4% | . | -30% | -2% | -30%[46.1 µM] | . | . | 4%[46.1 µM]
O=C(CN(C(=O)CNC(=O)c1cccs1)c1ccc(F)cc1)NC1CCCCC1 | . | -16% | 4% | . | -2% | 0% | 2% | -19%[46.1 µM]
CCOC(=O)C(=O)Nc1nnc2n1CCS2 | -1.4% | . | -4% | -8% | -10%[46.1 µM] | . | . | .
CN(C)C(C)(C)/C=C/C(O)(c1ccccc1)c1ccccc1 | . | 4% | -18% | . | 7%[46.1 µM] | 2% | -1% | ?

# Compound profiles, as listed above. Order of screens: Cruzain inh Det, NS1 inh, 2A StopGo, Cruzain inh noDet, Lassa entry inh, RE007 growth inh, SARS PLpro yeast, Marburg entry inh
# COc1cc(C(=S)N2CCOCC2)cc(OC)c1OC(=O)c1ccc(F)cc1 is entered as ., 17%, -12%, ., ?, -27%, 10%, ?
# CN(C)C(C)(C)/C=C/C(O)(c1ccccc1)c1ccccc1 is entered as ., 4%, -18%, ., 7%[46.1 µM], 2%, -1%, ?

# Other structures follow:
Compound | Cruzain inh Det | NS1 inh | 2A StopGo | Cruzain inh noDet | Lassa entry inh | RE007 growth inh | SARS PLpro yeast | Marburg entry inh
O=C(CCn1cnc2ccccc21)N/N=C/c1ccccc1O | -8.4% | -5% | 39%[activator] | -6% | ? | -6% | -1% | ?
CCOc1cc(N2CCOCC2)c(OCC)cc1NC(=O)C(C)C | . | 16% | -8% | . | -3% | 5% | 1% | -1%[46.1 µM]
COC(=O)CC(=O)CSc1nc(C)cc(C)c1C#N | -1.4% | 12% | -12% | -1% | 0% | -6% | -1% | 1%
CSCCC(NC(=O)COc1ccccc1)C(=O)N1CCN(c2ccccc2F)CC1 (stereo unspecified) | 3.5% | -8% | 56%[activator] | 7% | 4% | 0% | 3% | -5%
CCOC(=O)N=Nc1c(O)n(CC)c2ccccc12 | -6.2% | -9% | -6% | 0% | 25% | ? | 1% | ?
COc1cc(/C=N/NC(=O)CNc2n[nH]c(=O)[nH]c2=O)ccc1OCc1ccccc1 | . | -1% | 8% | . | 24% | 3% | 0% | 4%[46.1 µM]
CCn1c(=O)c2cc(C(=O)NCCc3ccc(Cl)cc3)sc2c2ccccc21 | 0.6% | . | -12% | -5% | -12%[46.1 µM] | . | . | 9%[46.1 µM]
Cc1c(C(=O)N2CCCC2)oc2c1-c1nn(CC(=O)NC(C)c3ccccc3)cc1CC2 (stereo unspecified) | -3.0% | . | ? | 24% | -24%[46.1 µM] | . | . | .
Cc1cn(C2OC(COC(=O)c3ccccc3)C(O)C2O)c(=O)[nH]c1=O (stereo unspecified) | 4.6% | -1% | . | 2% | 5% | 2% | -1% | -5%
O=C(O)CSc1ncn[nH]1 | 4.5% | -4% | -20% | 7% | 10% | -8% | -1% | -21%
COc1ccc2[nH]c3c(=O)n(CCCN4CCOCC4)cnc3c2c1 | . | 2% | -5% | . | . | 0% | 0% | .
CC(C)CC(NC(=O)c1ccccc1)C(=O)N/N=C/c1ccco1 (stereo unspecified) | -7.1% | 4% | -9% | -2% | ? | 11% | 15% | -13%
Cc1ccc(Cl)c2sc(NC(=O)C3CC3)nc12 | . | 6% | 8% | . | . | 5% | 5% | .
O=C(NCCc1c[nH]c2ccccc12)c1cccc(S(=O)(=O)Nc2ccccc2Cl)c1 | -8.7% | ? | -19% | -1% | -10% | -2% | -11% | -1%
NC(=O)COc1c(-c2ccc(Br)o2)oc2ccccc2c1=O | . | -9% | -12% | . | . | 1% | -11% | .
Cc1ccccc1Cn1c(CN2CCc3ccccc3C2)nc2c1c(=O)n(C)c(=O)n2C | -4.8% | ? | . | ? | ? | 11% | -21% | ?
CCOC(=O)CNC(=S)N(Cc1ccccc1)Cc1cccs1 | . | . | 2% | . | 1% | -20% | -8% | -29%[46.1 µM]
O=C(NC1CC1)C1C2C3C4CC5C3C5C4C12 (stereo unspecified) | 3.1% | -14% | . | 7% | -19% | 11% | -7% | 15%
CC1(C)CCc2cc(CN3CCN(c4ccccn4)CC3)ccc2O1 | . | -2% | -10% | . | 25% | -11% | 1% | 3%
CCOc1ccc(-n2c(=O)c3sccc3n(CC(=O)NCc3ccco3)c2=O)cc1 | -1.0% | -2% | -16% | -14% | 14% | 3% | 6% | 13%
O=c1ccc2cc(S(=O)(=O)N3CCN(c4ccccc4)CC3)ccc2[nH]1 | . | -5% | -21% | . | . | -3% | 6% | .
Cc1ccc(CNC(=O)CCc2nc3cccnc3n2Cc2ccccc2)cc1 | -2.6% | . | -13% | 1% | -19%[46.1 µM] | . | . | 6%[46.1 µM]
COc1ccc(Cn2c3nc4ccccc4nc3c3c(=O)n(Cc4ccco4)cnc32)cc1 | -19% | 8.9µM* | . | ? | . | . | -3% | -4%
C/C(=N/NS(=O)(=O)c1ccc(Cl)cc1)c1ccncc1 | . | -1% | 8% | . | . | 1% | -1% | .
COc1ccc(S(=O)(=O)NCc2cccnc2)cc1NC(=O)c1ccc(Cl)cc1 | . | . | 50%[activator] | . | 3% | 10% | -5% | ?
COc1ccc(CCC(=O)OCC(=O)N(C)c2c(N)n(Cc3ccccc3)c(=O)[nH]c2=O)cc1 | . | . | 15% | . | ? | -19% | -2% | 0%
Cn1c(=O)c(C(=O)CN2CCCCC2)c(N)n(Cc2ccccc2)c1=O | . | 5% | -4% | . | -9% | -20% | 0% | 7%
COc1cc(C(c2c(C)[nH][nH]c2=O)c2c(C)[nH][nH]c2=O)ccc1OS(=O)(=O)c1ccc(C)cc1 | -2.7% | 22% | 1% | -4% | 12% | -7% | 3% | 5%
Cc1ccc(CN(Cc2ccco2)C(=O)COc2cc(C)c(Cl)c(C)c2)cc1 | -8.7% | . | ? | -18% | ? | . | . | -3%[46.1 µM]
O=C(NCc1cccnc1)c1cccc(NC(=O)c2ccco2)c1 | -2.8% | 1% | 0% | 8% | -25% | -7% | 27% | -22%
O=C1CCCN1CCCNc1ccc2nnc(CCC(=O)N3CCN(c4ccccc4)CC3)n2n1 | . | -5% | -5% | . | . | 5% | -4% | .
O=C(CSc1ccccc1)Nc1ccc(S(=O)(=O)Nc2ncccn2)cc1 | . | . | -5% | . | ? | -1% | -7% | 4%[46.1 µM]
CC(=O)Nc1ccc(C(=O)OCC(=O)NCc2ccc3c(c2)OCO3)cc1 | . | . | 4% | . | ? | -11% | 1% | -2%
